GLA inh pH 4.5: alpha-galactosidase A (human) inhibition, pH 4.5 | activity change, negative = inhibition, % at 105 µM | 230,000 tested, under 10 active | P06280 | purified enzyme, 4-MU-alpha-Gal fluorescence, pH 4.5; inconclusive = small, poorly fitted or top-dose-only inhibition, or a rising curve; inactive = flat fitted curve, though single readings scatter; no compound was filed as active;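 further: 0% = full activity with enzyme and -100% = basal without enzyme; dose as in the result columns while the protocol names 77 µM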
Rango-impB inh: Rango-importin beta binding inhibition; actives 0.031% (n = 340,000); Potency, µM (series often up to 92.2 µM), inactives show at the top dose inhibition of complex formation; Q14974; AID 540263; Rango CFP/YFP FRET sensor + importin beta, 45 min; active = rising FRET ratio curve, often small or poorly fitted; inconclusive = mostly compound fluorescence or quenching in the first reads; inactive = flat curves in all reads;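 further: potency means the concentration at half of the fitted maximal effect; 0% = DMSO wells and 100% = buffer wells lacking importin beta; nearly all actives have a fitted effect of over 15% in size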
Target sequence (Q14974 whole entry, looked up): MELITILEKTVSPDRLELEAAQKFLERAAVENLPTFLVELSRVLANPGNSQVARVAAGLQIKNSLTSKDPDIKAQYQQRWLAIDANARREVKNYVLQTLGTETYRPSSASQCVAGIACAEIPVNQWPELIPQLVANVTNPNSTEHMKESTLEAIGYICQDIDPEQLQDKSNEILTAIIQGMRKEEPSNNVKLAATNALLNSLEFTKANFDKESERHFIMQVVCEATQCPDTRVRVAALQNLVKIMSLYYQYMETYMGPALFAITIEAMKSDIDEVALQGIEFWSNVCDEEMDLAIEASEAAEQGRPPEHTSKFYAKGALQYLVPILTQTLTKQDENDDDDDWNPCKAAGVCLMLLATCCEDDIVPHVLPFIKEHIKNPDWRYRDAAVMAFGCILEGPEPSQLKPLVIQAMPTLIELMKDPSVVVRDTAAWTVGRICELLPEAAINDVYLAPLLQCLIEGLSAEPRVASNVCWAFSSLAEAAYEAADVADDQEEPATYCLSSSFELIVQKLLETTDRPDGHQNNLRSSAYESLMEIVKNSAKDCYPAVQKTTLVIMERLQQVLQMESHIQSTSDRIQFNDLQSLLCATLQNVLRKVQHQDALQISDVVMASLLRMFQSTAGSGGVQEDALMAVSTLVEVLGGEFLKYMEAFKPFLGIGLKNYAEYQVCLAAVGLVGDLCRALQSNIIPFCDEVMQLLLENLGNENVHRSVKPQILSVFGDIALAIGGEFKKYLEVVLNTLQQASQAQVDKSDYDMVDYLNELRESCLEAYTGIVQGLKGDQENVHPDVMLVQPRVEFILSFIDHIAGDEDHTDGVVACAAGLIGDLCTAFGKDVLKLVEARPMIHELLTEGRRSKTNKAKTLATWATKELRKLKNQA
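Inhibition scored from the CFP 486 nm/YFP 530 nm FRET ratio 45 min after adding 0.125 microM importin beta to 50 nM Rango biosensor preincubated 5 min with compound (room temperature, PBS with DTT, Tween-20, BSA). No-importin wells as positive control.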
miR-21 FLuc: miR-21 reporter, rising signal. HeLa miR-21 FLuc reporter, luciferase, 48 h. Potency, µM (highest dose often 38.3 µM), inactives show top-dose reporter change, positive = more light. 340,000 tested, under 10 active. AID 2288; active = well fitted rising curve with a large enough effect; inconclusive = small, poorly fitted or top-dose-only effect; inactive = no such curve, though single readings can be large or run the other way;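 further: % of control where 0% means no effect; miR-21 action dims this reporter so a rising signal means less miR-21 action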
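HeLa cells stably expressing CMV-driven firefly luciferase with a downstream miR-21 binding sequence, endogenously expressing miR-21, were treated with titrations (up to about 40uM final) for 48 hours at 37 degree Celsius. Luciferase luminescence was read after lysis.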
Rango dissoc inh: inhibitors of RanGTP-induced Rango-importin beta complex dissociation | O95149+P62826 | Biochemical FRET Rango-importin beta, RanGTP-induced dissociation | Potency, µM (titrated, usually from 46.1 µM), for the others: top-dose activity change, negative = inhibition | actives 0.071% (n = 340,000) | AID 540253; active means falling FRET ratio curve, often poorly fitted, with flat reads before Ran was added; inconclusive means other falling curves, or compound fluorescence or quenching; inactive means flat or rising ratio curve;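 further: potency means the concentration at half of the fitted maximal effect; % of control where 0% means no effect; nearly all actives have a fitted effect of over 45% in size; -100% = wells without RanGTP and RCC1; the record marks most hits as doubtful in a second field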
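Compounds preincubate 5 min with complex of recombinant Rango and importin beta in PBS with 1 mM DTT. Ran (0.6 uM) loaded with 2 mM GTP plus 0.2 uM RCC1 starts dissociation; FRET is recorded 45 min later.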
* = called active by the depositor; u = inconclusive; x = not tested or not shown; & = joins results of further samples.

SMILES	GLA inh pH 4.5	Rango-impB inh	miR-21 FLuc	Rango dissoc inh
COc1cc(S(=O)(=O)NC(Cc2c[nH]c3ccccc23)C(=O)O)ccc1NC(C)=O (configuration not stated)	x	-0.3%	2%	-24%
Cc1cc(C)cc(OCC(=O)NN2C(=O)c3ccccc3C2=O)c1	-12	1.9%	-1%	-1%
O=C(NCc1ccccc1)/C(NC(=O)c1ccccc1)=C(/Sc1ccccn1)c1ccccc1	-3	-3.7%	9%	0%
COc1ccc(Cn2c(=O)cc(C)[nH]c2=S)cc1	3	-0.9%	-17%	-10%
O=C(CCCN1C(=O)/C(=C/c2cccc(Br)c2)SC1=S)N1CCOCC1	x	0.9%	-1%	-18%
O=C(Nc1ccccc1)c1ccc(NCc2ccco2)c(S(=O)(=O)N2CCOCC2)c1	-10	u	3%	-9%
CCOC(=O)CC1(NC(=O)C2CCC(=O)N(C3CC3)C2)CCCCC1 (configuration not stated)	x	0.1%	1%	2%
O=C(c1ccccc1Cc1ccccc1)N1CCN(S(=O)(=O)c2ccccc2[N+](=O)[O-])CC1	x	0.2%	x	-3%
CCOc1ccccc1-c1c2cc(O)c(=O)cc-2oc2cc(O)c(O)cc12	1	u	7%	u
CN(CCC#N)C(=O)COC(=O)c1ccc(Cl)cc1O	-8	1.3%	3%	5%
O=C(O)CSc1ncnc2scc(-c3ccccc3)c12	u	-0.6%	0%	-7%
CN(CC(=O)Nc1cccc(F)c1)C(=O)CN1C(=O)NC2(CCCC2)C1=O	x	-3.7%	x	0%
Cc1cccc(NC2=C(Cl)C(=O)OC2OC(=O)c2ccco2)c1 (configuration not stated)	-5	-4.8%	7%	-9%
CC(Sc1nnc(C2CC2)n1N)C(=O)NC1CCCCC1C (configuration not stated)	x	-2.4%	-2%	1%
O=C(c1ccc2[nH]c(=O)c(=O)[nH]c2c1)N1CCc2ccccc21	x	0.2%	2%	-17%
O=C(O)c1ccccc1/C=N/Nc1ccc(S(=O)(=O)N2CCCC2)cc1[N+](=O)[O-]	-13	-1.5%	6%	1%
O=C(NCCCn1ccnc1)C(F)(F)C(F)(F)C(=O)NCCCn1ccnc1	-19	-1.0%	-2%	-4%
COc1ccccc1/C=C/C=N/n1c(-c2ccc(C)cc2)n[nH]c1=S	0	0.4%	15%	8%
COc1c2ccoc2c(OC)c2oc(=O)ccc12	1&1	0.8%	-1%	-2%
COc1cc(S(=O)(=O)N2CCOCC2)c(OC)c(S(=O)(=O)N2CCOCC2)c1	x	-3.2%	x	-15%
CC(=O)NC1c2ccccc2C(=O)N1Cc1ccccc1 (configuration not stated)	x	-2.6%	-2%	-9%
CCOc1ccc(Cc2n[nH]c(=S)n2N)cc1	12	-0.6%	-8%	5%
CCOC(=O)N1CCN(C(=O)c2ccc3nc(N4CCC(C)CC4)sc3c2)CC1	5	-0.9%	-17%	-15%
Cc1ccc(NC(=O)CSc2nsc(SCC(=O)Nc3ccc(C)cc3C)c2C#N)c(C)c1	2	u	6%	-5%
CN(C)c1nc(N(C)C)nc(N2CC(CCl)OC2=N)n1 (configuration not stated)	1	4.5%	7%	-4%
O=C(N/N=C/c1cccnc1)c1cc(-c2cccs2)nc2ccccc12	-16	0.1%	17%	-12%
O=C(O)c1ccc(CNC(=O)c2ccccc2NC(=O)c2cccc([N+](=O)[O-])c2)cc1	-2	-0.3%	-9%	20%
CCOc1cc(CNn2cnnc2SCC(=O)NC(C)(C)C)ccc1OCC(=O)NC(C)(C)C	2	-1.9%	6%	16%
CSc1ccccc1NC(=O)COC(=O)c1c[nH]c(=O)[nH]c1=O	1	1.3%	-1%	5%
CCOC(=O)Cc1csc(SCc2nc3sc4c(c3c(=O)[nH]2)CCC4)n1	0	-1.7%	-7%	-1%

Some of these compounds in order of formula weight, descending.
SMILES	GLA inh pH 4.5	Rango-impB inh	miR-21 FLuc	Rango dissoc inh
O=C(N/N=C/c1cccnc1)c1cc(-c2cccs2)nc2ccccc12	-16	0.1%	17%	-12%
COc1ccccc1/C=C/C=N/n1c(-c2ccc(C)cc2)n[nH]c1=S	0	0.4%	15%	8%
CN(C)c1nc(N(C)C)nc(N2CC(CCl)OC2=N)n1 (configuration not stated)	1	4.5%	7%	-4%
CCOc1ccc(Cc2n[nH]c(=S)n2N)cc1	12	-0.6%	-8%	5%

Next section
SMILES	GLA inh pH 4.5	Rango-impB inh	miR-21 FLuc	Rango dissoc inh
COc1ccc(/C=N/NC(=O)c2nnn(-c3nonc3N)c2-c2cccc(OC)c2)cc1	x	4.0%	-3%	1%
COC(=O)c1c(N2C(=O)Nc3ccccc3N2O)sc(C)c1C	-6	2.4%	4%	5%
Cc1ccsc1C(=O)N1CCc2ccccc2C1	x	4.1%	-29%	0%
CC1CCN(c2ccc(NC(=O)c3cccnc3Cl)cc2)CC1	4	-0.2%	1%	15%
CCNC(=O)COc1ccc(F)cc1C(=O)c1cnn(-c2ccccc2)c1	x	0.3%	-10%	1%
O=C(Nc1nc2cc3c(cc2s1)OCO3)c1cccc(N2C(=O)CCC2=O)c1	3	-2.8%	-5%	-8%
COCCn1c(SCC(=O)Nc2ncc(Cl)c(C)c2Cl)nc2ccccc21	-17	-4.0%	12%	0%
COc1ccc(COc2cc(-c3cccc(OC)c3)nc3ccc(NC(=O)c4ccccc4)cc23)cc1	-2&-11	-4.8%	14%	18%
Cc1ccc(OCC(=O)NCCNC(=O)c2ccc(C)nc2)cc1	x	-0.3%	2%	-3%
O=C1c2ccccc2NC(c2ccc3c(c2)OCO3)N1O (configuration not stated)	-5	-0.9%	-5%	-9%
CC(=O)c1c(C)[nH]c(C(=O)N2CCN(c3ccccn3)CC2)c1C	x	-0.4%	8%	1%
O=C(COC(=O)c1ccc[nH]c1=O)Nc1ccc(S(=O)(=O)N2CCCC2)cc1	5	2.5%	-1%	7%
CC(=O)Nc1nc(-c2ccc(Cl)cc2)ns1	4	-0.9%	-67%	-6%
Cc1ccc(NC(=O)C2CCCN(C(=O)c3ccc(Cl)cc3)C2)cc1 (configuration not stated)	0	0.4%	-14%	-11%
N#Cc1cc(N)ccc1Sc1ccc(Cl)cc1	u	0.1%	-13%	14%
COc1ccc(-c2nn(-c3ccccc3)cc2/C=N/NC(=O)c2cccc(S(=O)(=O)Nc3ccccc3OC)c2)cc1	-12	-1.5%	-39%	21%
CCOc1ccc(NC(=O)CCN2CCN(S(=O)(=O)c3cc(Cl)ccc3OC)CC2)cc1	-31	2.0%	0%	-8%
O=C(CCCCCCN1C(=O)c2ccccc2C1=O)Nc1nccs1	-9	-2.6%	-2%	8%
CCOc1ccc(N=C2NC(=O)S/C2=C\c2ccc(OC)cc2)cc1	-1	u	-2%	-24%
Cn1c(/N=C/c2ccc3c(c2)OCO3)nc2ccccc21	3	0.7%	-2%	3%
NS(=O)(=O)c1ccc(N2N=C(c3ccccc3)CC2c2cccc(Cl)c2)cc1 (configuration not stated)	x	u	x	u
CN(C)C(=O)c1cn(-c2ccccc2)nc1-c1cccs1	4	-0.1%	-4%	10%
CN(CC(=O)Nc1ccccc1Br)C(=O)c1ccncc1	x	1.5%	-3%	-7%
O=C(c1ccc(Oc2ccc([N+](=O)[O-])cc2Cl)cc1)N1CCCC1	4	-0.7%	19%	-1%
CCCC1CC(c2csc(N)n2)CCO1 (configuration not stated)	6	-4.3%	1%	-5%
Cc1cc(C)c(C#N)c(SCC(=O)Nc2ccc(S(=O)(=O)Nc3onc(C)c3C)cc2)n1	10	-0.8%	-8%	-8%
Cc1ccc(Oc2ccccc2NC(=O)C2=COCCO2)cc1	x	-0.9%	x	6%
O=C(c1ccco1)N1CCCC(c2nc3c(nnn3Cc3ccccc3)c(=O)[nH]2)C1 (configuration not stated)	x	-4.1%	3%	7%
O=C(Cc1n[nH]c(=O)c2ccccc12)OCC(=O)N(Cc1ccccc1)Cc1ccccc1	-6	4.6%	-2%	-7%
CCN(CC(=O)Nc1ccccc1C(F)(F)F)C(=O)CN1C(=O)NC(C)(c2ccc3ccccc3c2)C1=O (configuration not stated)	x	2.5%	x	14%

Sorted by value in miR-21 FLuc (descending): 3 from the list above.
Structure | miR-21 FLuc
CCOc1ccc(NC(=O)CCN2CCN(S(=O)(=O)c3cc(Cl)ccc3OC)CC2)cc1 | 0%
O=C(Cc1n[nH]c(=O)c2ccccc12)OCC(=O)N(Cc1ccccc1)Cc1ccccc1 | -2%
COc1ccc(-c2nn(-c3ccccc3)cc2/C=N/NC(=O)c2cccc(S(=O)(=O)Nc3ccccc3OC)c2)cc1 | -39%

The listing continues:
SMILES	GLA inh pH 4.5	Rango-impB inh	miR-21 FLuc	Rango dissoc inh
CCC1(C)NC(=O)N(CC(=O)N2CCC(Cc3ccccc3)CC2)C1=O (configuration not stated)	x	2.8%	x	19%
COc1cccc(C2C(C(=O)c3cccs3)=C(O)C(=O)N2CCN2CCOCC2)c1 (configuration not stated)	x	6.4%	-2%	8%
CC1CN(c2oc(Cc3cccc4ccccc34)nc2C#N)CC(C)O1 (configuration not stated)	-9	0.0%	-8%	-13%
C=CCn1c(SCc2cccc(OC)c2)nnc1-c1ccncc1	x	1.8%	-4%	41%
Cc1ccc(NC(=O)COc2ccccc2C(=O)NCCN(C)C)cc1	-2	x	4%	x
Cc1c(C)c2ccc(OCC(=O)N3CCOCC3)c(C)c2oc1=O	1	6.3%	-33%	-5%
CC1C(=O)N2CCCc3cc(S(=O)(=O)N(C)Cc4ccccc4)cc1c32 (configuration not stated)	x	2.6%	-3%	6%
O=C(c1cccs1)N1CCCc2ccccc21	0	1.1%	-3%	-1%
Cc1ccc(NC(=O)CCN2C(=O)C3CCCCC3C2=O)cc1[N+](=O)[O-] (configuration not stated)	x	5.6%	x	-5%
COc1ccc(CC(=O)Oc2ccc(Br)cc2F)cc1S(=O)(=O)N1CCOCC1	x	2.5%	x	4%
O=c1c2ccccc2nc(SCc2cn3ccsc3n2)n1-c1ccc(F)cc1	-4	-2.4%	-11%	19%
O=C(Oc1ccc2ccccc2c1)c1cncc(Br)c1	-5	-1.9%	0%	-21%
CCN(CC(=O)Nc1ccccc1OC)CC(=O)Nc1ccccc1-c1ccccc1	-6	0.2%	22%	5%
CCOC(=O)CNC(=O)Cn1cnc2c(nnn2-c2cccc(OC)c2)c1=O	x	0.8%	0%	8%
CCCn1c(=NC(=O)CCS(=O)(=O)c2ccccc2)sc2cc(S(N)(=O)=O)ccc21	x	u	x	-2%
CC1=Nn2c(nc(-c3ccccc3)c2-c2ccccc2)NC(=O)C1Br (configuration not stated)	4	1.1%	5%	-16%
Cc1ccccc1C(=O)Nc1cccc(C(=O)Nc2ccccc2C(=O)O)c1	x	-0.1%	0%	1%
O=C(NC(=O)N1CCSCC1)c1c(Cl)cccc1Cl	2	-2.1%	0%	0%
O=C(NCCc1ccccc1)C1CCC(=O)N(Cc2ccc(Cl)cc2)C1 (configuration not stated)	x	-0.9%	-5%	-1%
Cc1ccccc1NC(=O)/C(=C/c1ccco1)c1ccccc1	-7	-1.4%	-7%	-2%
CC(C)(C)OC(=O)N1CCC(Cc2cc(-c3ccccc3)no2)(C(=O)O)CC1	x	-1.2%	-4%	46%
Cc1cccc(OCC(=O)Nc2ccccc2F)c1	5	-0.6%	-60%	1%
CSCCC(=O)N1CCCC(CNC(=O)c2ccc(-c3ccccc3)cc2)C1 (configuration not stated)	12	-2.4%	-14%	-7%
O=C(c1cccs1)N1CCC(c2nc(-c3ccc(S(=O)(=O)N4CCOCC4)cc3)no2)CC1	1	-3.9%	-2%	-1%
O=C(Nc1cc(C(F)(F)F)ccc1N1CCCCC1)c1cccc([N+](=O)[O-])c1	-3	-3.8%	-2%	-1%
Cc1cccc(N=C2CCCC2C(=O)Nc2cccc(C)c2C)c1C (configuration not stated)	x	4.2%	x	-10%
Cc1ccsc1C(=O)NN=C1CCCCCC1	x	3.7%	-72%	-20%
CC12CCC(C(=O)Nc3nc4ccccc4s3)(OC1=O)C2(C)C (configuration not stated)	6	-0.5%	-31%	-3%
CCOc1cc(NC(=S)NCC2CCCO2)c(OCC)cc1NC(=O)CC(C)C (configuration not stated)	7	u	-3%	-14%
O=C(Cc1ccc(Cl)cc1)NCc1nc(-c2ccccc2)no1	4	x	-12%	x
COc1cc(CNC2CCCCCCC2)c(Br)cc1OCCO	x	1.4%	-5%	-12%

Only part of the results is shown; rates above refer to the full screens.
